Assay outcomes (PubChem)
GIRK2 activ: GIRK2 channel activation | P48051 | HEK293-GIRK2 thallium flux, Thallos fluorescence | calls only for hits at 25 µM | hit rate 0.05% among 63,000 | AID 1259325;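 active = among the strongest 0.2% of first-round signals and kept after retests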;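 also: first round at about 10 µM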
Target sequence (P48051 whole entry, looked up): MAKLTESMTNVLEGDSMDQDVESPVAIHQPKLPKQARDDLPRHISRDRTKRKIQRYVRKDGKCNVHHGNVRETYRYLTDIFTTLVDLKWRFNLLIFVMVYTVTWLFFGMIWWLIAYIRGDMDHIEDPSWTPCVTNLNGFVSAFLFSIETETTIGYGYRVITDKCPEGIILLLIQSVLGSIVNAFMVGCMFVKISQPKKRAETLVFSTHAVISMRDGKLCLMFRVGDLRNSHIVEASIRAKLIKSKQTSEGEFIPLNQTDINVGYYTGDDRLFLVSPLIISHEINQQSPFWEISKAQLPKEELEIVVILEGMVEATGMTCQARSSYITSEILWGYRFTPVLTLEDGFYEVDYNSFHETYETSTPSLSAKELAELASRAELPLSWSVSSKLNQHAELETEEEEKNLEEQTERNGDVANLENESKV
Calls only; i = inactive. Only part of the results is shown (hit frequency here may not be typical).

Sample of the layout:
SMILES | GIRK2 activ
O=C(NCC1(c2cccs2)CCOCC1)c1ccccc1 | i
N#C/C(C(=O)NCc1ccco1)=C1/N=C(NC(=O)c2ccc(F)cc2)c2ccccc21 | i
O=C(Nc1ccc(-n2cnnn2)cc1)c1cc(-c2ccco2)on1 | i
Cc1cc(C)n(-c2ccc(=O)n(CCNC(=O)C3CCN(S(C)(=O)=O)CC3)n2)n1 | i
CCNc1oc(-c2ccc(S(=O)(=O)N3CCCC3)cc2)nc1C#N | i

The list itself, previewed entries included:
SMILES | GIRK2 activ
O=C(NCC1(c2cccs2)CCOCC1)c1ccccc1 | i
N#C/C(C(=O)NCc1ccco1)=C1/N=C(NC(=O)c2ccc(F)cc2)c2ccccc21 | i
O=C(Nc1ccc(-n2cnnn2)cc1)c1cc(-c2ccco2)on1 | i
Cc1cc(C)n(-c2ccc(=O)n(CCNC(=O)C3CCN(S(C)(=O)=O)CC3)n2)n1 | i
CCNc1oc(-c2ccc(S(=O)(=O)N3CCCC3)cc2)nc1C#N | i
O=C(CCC1CCCC1)NC1CCN(C(=O)c2cn(-c3ccc(Cl)cc3)nn2)CC1 | i
CC(C)=CCC/C(C)=C/CC/C(C)=C/Cc1c(O)cc(C)c(C=O)c1O | i
O=C(Nc1nc2c(s1)COCC2)c1ccsc1 | i
CCCCS(=O)(=O)NCCn1ncc2c(N3CCN(c4ccccc4)CC3)ncnc21 | i
CCc1cc2c(=O)n(Cc3ccco3)c(SCC(=O)c3ccc(OC)cc3)nc2s1 | i
O=C(NCCN1CCC(n2c(=O)[nH]c3cc(Cl)ccc32)CC1)c1ccc(F)cc1 | i
C=CCOc1ccccc1CN1C(=O)C(O)(CC(C)=O)c2ccccc21 (stereo not given) | i
Cc1cccc(N2CCN(CC(O)c3ccc4c(c3)OCO4)CC2)c1 (stereo not given) | i
Cc1ccnc(Nc2cc(N3CCN(C(=O)C4CCCC4)CC3)nc(C)n2)c1 | i
NC(=S)Nc1cccc(O)c1 | i
COc1ccc(NC(=O)c2ccc(S(=O)(=O)N3CCCCC3)cc2)cc1OC | i
O=C(CSCc1ccccc1)Nc1nc(CN2CCc3ccccc3C2)cs1 | i
CCC1CCCCN1C(=O)c1cnc2nc(C)ccc2c1Nc1ccc(S(C)(=O)=O)cc1 (stereo not given) | i
Cc1c(Cl)cccc1NC(=O)Nc1cnc(N2CCOCC2)nc1 | i
Cc1cc(NC(=O)C2CCN(C(=O)Cn3cccn3)CC2)no1 | i
COc1ccc(-c2nn3c(NCC(C)C)cc(C)nc3c2C)cc1OC | i
COC(=O)Nc1ccc(S(=O)(=O)N2CCCC(C(=O)Nc3ccc4c(c3)OCCO4)C2)cc1 (stereo not given) | i
O=C(NCc1ccc(C(=O)c2cccs2)s1)c1ccc(Br)o1 | i
Cc1ccc(N2CCC(C(=O)Nc3ccc(S(C)(=O)=O)cc3)CC2)nn1 | i
O=C(NCc1ccco1)c1nnn(-c2ccc(Br)cc2)n1 | i
Other structures follow:
SMILES | GIRK2 activ
CC(Oc1ccccc1)C(=O)N(Cc1ccoc1)Cc1cccs1 (stereo not given) | i
CC(=O)N(CCc1cccs1)Cc1ccoc1 | i
COCCSc1nc2c(c(=O)n(Cc3ccc(Cl)cc3)c(=O)n2C)n1C | i
CCn1c(SCC(=O)Nc2cc(F)ccc2F)nc2nc(N3CCC(C)CC3)sc2c1=O | i
Cc1cc(C(=O)NCC(O)c2cccc3ccccc23)c(C)o1 (stereo not given) | i
COc1ccc(Cl)cc1NC(=O)N1CCc2nc(NC(C)=O)sc2C1 | i
COc1ccc2c(c1)c(CCNC(=O)CCF)c(C)n2Cc1ccc(Br)cc1 | i
Nc1ccc(Br)cc1[N+](=O)[O-] | i
O=C(/C=C\c1ccccc1)N1CCN(Cc2nnnn2-c2cccc(F)c2)CC1 | i
COc1ccc(Nc2cc(C)nc(Nc3ccc(NC(=O)c4ccc5c(c4)OCO5)cc3)n2)cc1 | i
O=C(CSc1cc(N2CCCCC2)ncn1)NC1CCCC1 | i
O=C(Nc1sccc1-c1nc2ccccc2s1)c1ccc(F)c(F)c1 | i
COc1ccc(CCNC(=O)C(=O)Nc2c3c(nn2-c2ccc(F)cc2)CSC3)cc1 | i
Cc1c(Cl)cccc1S(=O)(=O)N1CCCC(c2nnc(C(F)(F)F)o2)C1 (stereo not given) | i
Cc1ccccc1OCC(=O)N1CCc2cc(S(=O)(=O)NC3CCCC3)ccc21 | i
Cc1ccccc1N1CCN(c2nccn3c(=O)n(CC(=O)Nc4cccc(C(C)C)c4)nc23)CC1 | i
COc1ccc(S(=O)(=O)Nc2ccc3c(c2)CN(C(=O)c2ccco2)CC3)cc1F | i
COc1cccc(CSc2nc(C)c(CC(=O)N3CCc4ccccc4C3)c(=O)[nH]2)c1 | i
COc1cccc(CSc2nc(C)c(CC(=O)Nc3nnc(C)s3)c(=O)[nH]2)c1 | i
COC(=O)c1ccc(CSc2nnc(N3CCN(c4ccc(F)cc4)CC3)s2)o1 | i
CCOc1ccc(-n2c(=S)sc3c(=O)[nH]c(SCC(=O)NC4CCCC4)nc32)cc1 | i
COc1cccc(CNC(=O)Cn2c(C)cc(C)c(C#N)c2=O)c1OC | i
COc1ccc2nc(-c3ccc(Cl)c(NC(=O)c4cc5ccccc5oc4=O)c3)cn2n1 | i
COc1ccc(-c2noc(-c3c(C)cc(C)n(CC(=O)Nc4cc(C)ccc4C)c3=O)n2)cc1 | i
CCSc1nnc(NC(=O)c2csc(Nc3nc(C)cc(C)n3)n2)s1 | i
New compounds follow:
SMILES | GIRK2 activ
O=C(NCc1cccs1)C(=O)NCC1(c2ccccc2)CCOCC1 | i
Cc1ccc(-c2csc(NC(=O)C3CCN(S(=O)(=O)c4ccc(C)cc4)CC3)n2)cc1 | i
N#C/C(C(N)=O)=C1/SC(Cc2cccc([N+](=O)[O-])c2)C(=O)N1c1ccccc1 (stereo not given) | i
CCN(CC)C(=O)Oc1ccc2c(=O)c(-c3ccc(OC)cc3)coc2c1 | i
COc1ccc(CN(c2ccc(F)cc2)S(=O)(=O)c2cccn3c(C)nnc23)cc1 | i
O=C(Nc1ccc2c(c1)CCCN2C(=O)c1ccccc1)c1cc(C2CC2)on1 | i
O=C(NCCCOc1cccc2cccnc12)c1ccc2ncsc2c1 | i
COC(=O)c1sccc1S(=O)(=O)NCc1nc(C)no1 | i
CCSc1ccccc1C(=O)Nc1c2c(nn1CC(=O)NCc1ccco1)CSC2 | i
C=C(C)CSc1nc2c(c(=O)[nH]c(=O)n2C)n1C/C=C(/C)Cl | i
CCN1CCCC1CNC(=O)c1ccc(S(=O)(=O)N2CCOCC2)cc1 (stereo not given) | i
CS(=O)(=O)c1cccc(S(=O)(=O)N2CCCc3ccccc32)c1 | i
Cc1ccc2ncc(C(=O)N3CCSCC3)c(S(=O)(=O)c3ccc(C(C)C)cc3)c2c1 | i
CCc1cccc(NC(=O)Cn2cnc3c(-c4ccc(OC)cc4)csc3c2=O)c1 | i
COc1ccccc1N1CCN(c2nnc(SCC(=O)N3CCOCC3)s2)CC1 | i
O=C(NCc1ccc2c(c1)OCO2)C1CCN(c2ncnc3c2sc2ncccc23)CC1 | i
CCn1c(-c2nonc2N)nc2cnc(Oc3cccc(NC(=O)c4ccc(N(C)C)cc4)c3)cc21 | i
CC(C)CCN1C(=O)CCc2cc(NC(=O)c3ccc4c(c3)OCO4)ccc21 | i
Nc1c(C(=O)N2CCOCC2)sc2nc(-c3ccccc3)cc(-c3ccccc3)c12 | i
CC(=O)c1cccc(NC(=O)Cn2cnc3c(sc4ccccc43)c2=O)c1 | i
CS(=O)(=O)N1CCC(C(=O)Nc2nc3c(s2)COCC3)CC1 | i
Cc1nnsc1C(=O)Nc1sccc1-c1nc2ccccc2s1 | i
CCOC(=O)c1c(NCCC(C)C)c2ccc(Cl)cc2[nH]c1=O | i
Cc1nn(-c2nc3c(c(=O)n(CC(=O)C(C)(C)C)c(=O)n3C)n2C)c(C)c1C | i
CSc1ccccc1NC(=O)C(=O)NC(C)Cc1ccco1 (stereo not given) | i

Sorted by number of heavy atoms (lowest first): some entries from above
SMILES | GIRK2 activ
CS(=O)(=O)N1CCC(C(=O)Nc2nc3c(s2)COCC3)CC1 | i
Cc1c(Cl)cccc1NC(=O)Nc1cnc(N2CCOCC2)nc1 | i
O=C(NCc1cccs1)C(=O)NCC1(c2ccccc2)CCOCC1 | i
COc1ccc(-c2nn3c(NCC(C)C)cc(C)nc3c2C)cc1OC | i

Following part:
SMILES | GIRK2 activ
Cc1noc(C)c1CCC(=O)Nc1nc(-c2cccnc2)cs1 | i
O=C(NC1CCS(=O)(=O)C1)c1ccc(-c2ccc([N+](=O)[O-])cc2Cl)o1 (stereo not given) | i
COc1ccc(C2C(C(=O)Nc3ccc(C)cc3C)C(C)Nc3ncnn32)cc1 (stereo not given) | i
CCOc1ccccc1-c1nc(Cn2nnc(C(=O)Nc3cc(OC)cc(OC)c3)c2N)c(C)o1 | i
COc1cccc(NC(=O)Nc2cccc(-c3ccc4nnc(C)n4n3)c2)c1 | i
O=C(Cc1csc(Nc2ccc(Cl)cn2)n1)N1CCC2(CC1)OCCO2 | i
COc1ccc(S(=O)(=O)c2cnc(SCC(=O)Nc3ccccc3C)[nH]c2=O)cc1 | i
Cc1cccc(NC(=O)Cn2c(-c3ccc(F)cc3)nc3c(c2=O)CCN(Cc2ccccc2)C3)c1 | i
O=C(Nc1ccc(N2CCCS2(=O)=O)cc1)c1ccc([N+](=O)[O-])cc1 | i
O=C(CCn1cnc2ccccc2c1=O)Nc1onc2c1CSC2 | i
CC12CCC(C(=O)Nc3ccc([N+](=O)[O-])cc3)(CC1=O)C2(C)C (stereo not given) | i
O=C(c1ccc2c(c1)OCO2)N(CCn1cccn1)c1nc2ccccc2s1 | i
COc1ccccc1C(=O)Oc1ccc2c(=O)c(-c3ccccc3)coc2c1 | i
CS(=O)(=O)N1CCC(Oc2ccc(C(F)(F)F)cn2)CC1 | i
Cn1cc(C(=O)NCCc2cccs2)nn1 | i
O=C(NC1CCN(Cc2ccccc2)CC1)c1cnn2c1OCCC2 | i
COc1cccc(NC(=O)N2CCC(c3ccccc3)C2)c1OC (stereo not given) | i
CCSc1ccccc1C(=O)N1CCN(Cc2nc3ccccc3[nH]2)CC1 | i
COc1ccccc1N1CCN(c2ccnc(SCC(=O)Nc3ccc4c(c3)OCCO4)n2)CC1 | i
COCC(C)(O)CNC(=O)C(=O)Nc1ccc(C)c(Cl)c1 (stereo not given) | i
COc1cc(NC(=O)Cn2c(C)cc(C)c(C#N)c2=O)cc(OC)c1OC | i
COc1ccc(-c2cn3c(C(=O)N4CCN(c5ccccc5)CC4)csc3n2)cc1 | i
COc1ccc(S(=O)(=O)NCCOc2ccc(F)cc2)cc1C | i
CCC(=O)Nc1ccc(C(=O)NCCNS(=O)(=O)c2ccc(C)cc2OC)cc1 | i
Cc1oc2cc(OC(=O)C3CC3)ccc2c(=O)c1-c1ccccc1 | i
The list continues:
SMILES | GIRK2 activ
CCC(O)CC1CCC(C(C)C(=O)OC(CC)CC2CCC(C(C)C(=O)O)O2)O1 (stereo not given) | i
O=C(c1cc(=O)c2ccccc2o1)N1CCN(c2ncnc3c2nnn3-c2ccc(Cl)cc2)CC1 | i
Cc1ccccc1NC(=O)Nc1ccc(-c2ccc(N3CCN(C)CC3)nn2)cc1 | i
COc1ccc(CCC(=O)N2CCN(Cc3nc(C)cs3)CC2)cc1 | i
COc1ccc(C(=O)N2CCN(c3oc(-c4ccco4)nc3C#N)CC2)cc1 | i
CC(C)(C)c1ccc(OCC(=O)Nc2ccc(C(=O)O)cc2)cc1 | i
Cc1ccc(-n2c(=O)c3ccccc3n(Cc3nc(-c4ccccc4)no3)c2=O)cc1C | i
CCOC(CNC(=O)c1ccc(NC(=O)c2cn(C)nc2OC)cc1)OCC | i
CC(=O)Nc1ccc(C(=O)N2CC3(COC(C)(C)OC3)C2)cc1 | i
Cn1cc(C(=O)N2CCc3nc(NC(=O)C4CC4)sc3C2)nn1 | i
O=C(/C=C/c1cccs1)NCC1(O)CCCC1 | i
Cc1ccc(-c2cc(CCC(=O)O)nn2-c2ccc(S(C)(=O)=O)cc2)cc1 | i
Cc1ccccc1C(=O)NCCc1ncc(-c2ccco2)[nH]1 | i
Cc1cc(C(=O)N2CCc3nc(NC(=O)C4CCCO4)sc3C2)c(C)o1 (stereo not given) | i
C=CCNC(=O)C(=O)Nc1cccc(Cl)c1C | i
Cc1c(Cl)cccc1NS(=O)(=O)C1CC1 | i
CCOCCn1c(C2CC(=O)N(c3ccc(CC)cc3)C2)nc2ccccc21 (stereo not given) | i
COc1cccc(Oc2coc3cc(OC(=O)c4ccc([N+](=O)[O-])cc4)ccc3c2=O)c1 | i
Cc1ccccc1-n1ncc2c(=O)n(CC(=O)N3CCCCCC3)cnc21 | i
COc1cccc(-n2ccn3c(-c4ccc([N+](=O)[O-])cc4)nnc3c2=O)c1 | i
O=C(CCc1csc(NC(=O)c2cccs2)n1)Nc1ccc(F)cc1 | i
COc1ccc(S(=O)(=O)N2CCN(c3ccccc3Cl)CC2)c(C)c1C | i
Cn1cccc(C(=O)NCC2(c3cccs3)CC2)c1=O | i
O=C(NC1C=CS(=O)(=O)C1)c1cc2cc(Cl)ccc2o1 (stereo not given) | i
CC(Cc1cccs1)NC(=O)C1CCC1 (stereo not given) | i

Among those listed so far, these contain a COOH group.
SMILES | GIRK2 activ
CCC(O)CC1CCC(C(C)C(=O)OC(CC)CC2CCC(C(C)C(=O)O)O2)O1 (stereo not given) | i
CC(C)(C)c1ccc(OCC(=O)Nc2ccc(C(=O)O)cc2)cc1 | i
Cc1ccc(-c2cc(CCC(=O)O)nn2-c2ccc(S(C)(=O)=O)cc2)cc1 | i

A second format for some results above:
GIRK2 activ | canonical_smiles
i | COC(=O)Nc1ccc(S(=O)(=O)N2CCCC(C(=O)Nc3ccc4c(c3)OCCO4)C2)cc1 (stereo not given)
i | O=C(NCc1ccc(C(=O)c2cccs2)s1)c1ccc(Br)o1

Carrying on.
SMILES | GIRK2 activ
Cc1ccc2nc(C3CN(C(=O)c4ccsc4)C3)[nH]c2c1 | i
COC(=O)C1c2ccsc2CCN1S(=O)(=O)/C=C/c1ccccc1 (stereo not given) | i
COc1ccc(-c2coc3cc(OC(=O)c4ccccc4OC)ccc3c2=O)cc1 | i
Cc1cc(NC(=O)COC(=O)C(O)c2ccccc2)no1 (stereo not given) | i
Cc1ccc(C2=NC3(CCN(CC(=O)NCc4ccc(F)cc4)CC3)NC2=O)cc1 | i
O=C(NCC1(O)CCOc2ccccc21)C1c2ccccc2Oc2ccccc21 (stereo not given) | i
O=C(NCCN1CCN(c2ccccc2F)CC1)C(=O)NCc1ccc(Cl)cc1 | i
